miR-21 reporter – miR-21 reporter, rising signal | AID 2288 | HeLa miR-21 FLuc reporter, luciferase, 48 h | Potency, µM (doses to about 38.3 µM), inactives show at the highest dose reporter change, positive = more light | 340,000 tested, under 10 active; active = well fitted rising curve with a large enough effect; inconclusive = small, poorly fitted or top-dose-only effect; inactive = no such curve, though single readings can be large or run the other way;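 further: % of control where 0% means no effect; miR-21 action dims this reporter so a rising signal means less miR-21 action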
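HeLa miR-21-FLuc reporter line, endogenous miR-21; 2000 cells/well in DMEM/10% FBS; compound titration up to ~40uM final, 48 h, 37 degree Celsius; luciferase detection reagent, 15 min lysis, CCD luminescence.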
Active calls of the source: *; ? = inconclusive. This is a subset, so the mix of outcomes need not match the whole.

miR-21 reporter,canonical_smiles
-24%,COc1ccc(-c2cc(C(F)(F)F)nc(NCCc3ccccc3)n2)cc1OC
15%,COc1ccc(NS(=O)(=O)c2ccc3c(c2)CCN3C(=O)C2CC2)cc1OC
-2%,COc1ccc(Cn2c(C(=O)O)c(CNCc3ccc(C)o3)c3ccc(OC)cc32)cc1
0%,COCCn1c(CNC(=O)c2cccc(C)c2)nc2cccnc21
1%,Cc1cccc(-c2nnc(SCC(=O)N3CCCc4ccccc43)o2)c1
-3%,CCOC(=O)CC(NC(=O)Cn1nnc(-c2ccc(Cl)cc2)n1)c1ccc(OC)cc1 (stereo not drawn)
4%,O=C(Nc1cc(-c2ccccc2F)nn1-c1ccccc1)c1ccccc1Br
-12%,CCc1nnc(SCC(=O)N(C)c2ccccc2)c2cc3sccc3n12
18%,COc1ccc(NC(=O)CSC2=Nc3ccccc3C3=NC(CCC(=O)NCCc4ccccc4)C(=O)N23)c(OC)c1 (stereo not drawn)
-1%,O=C(NC1CCCCC1)c1ccc(Cn2c(SCc3ccccc3)nc3cccnc32)cc1
-12%,Cc1ccc(NC(=O)CSc2nnc3ccc4ccccc4n23)cc1
-15%,CC(=O)c1cc(-c2ccc(F)cc2)n(CC(=O)NC2CCC(C)CC2)c1C (stereo not drawn)
-13%,Cc1ccccc1CNC(=O)c1ccc2c(c1)c(C)c(C)n2C
11%,Cc1ccc2c(c1)cc(C(=O)NCc1ccccc1C)n2C
0%,Cc1cccc(-c2nc3ccccc3n3c(-c4ccccc4)c4c(=O)n(C)c(=O)n(C)c4c23)c1
20%,CCCn1ccc2c(OCC(=O)Nc3ccc(OC)c(OC)c3)cccc2c1=O
-2%,O=C(Nc1ccc(F)cc1F)c1cc(-c2ccccc2O)no1
-1%,Cc1cc(-c2ccc(C)c(S(=O)(=O)Nc3ccccn3)c2)on1
1%,Cc1ccc(OCc2nc(-c3ccc(C(=O)NCc4ccc(OC(C)C)cc4)cc3)oc2C)cc1
1%,Cc1ccc2c(c1)N(CC(=O)NCc1ccccc1Br)C(=O)c1cccnc1O2
4%,CCc1ccc(NC(=O)c2nn(-c3ccc(OC)cc3)c(=O)c3c2c2ccccc2n3C)cc1
-28%,COc1ccc(C(=O)c2cn(CC(=O)Nc3ccc4c(c3)OCO4)c3ccc(OC)cc3c2=O)cc1
-1%,CCCn1cc(S(=O)(=O)c2ccccc2)c(=O)c2cc(F)c(N3CCCC(C)C3)cc21 (stereo not drawn)
2%,COc1cc(-c2cc(OC)c3c(C)oc(C)c3c(=O)c2)ccc1OC(=O)c1ccc(C)cc1
2%,COc1ccc(-c2nc(C)c(CCNC(=O)C(=O)Nc3ccccc3OC)s2)cc1
?,Cc1cccc(CNC(=O)CCCN2C(=O)COc3ccc(C)cc32)c1
-18%,O=C(NCc1ccco1)c1ccc2c(c1)N(Cc1ccccc1F)C(=O)c1ccccc1S2=O (stereo not drawn)
-3%,Cc1ccc(C(=O)N2CCc3cc(CNC(=O)c4ccc(Br)cc4)ccc32)cc1
3%,CCCn1c2ccccc2c2nnc(SCC(=O)Nc3cccc(C(C)=O)c3)nc21
0%,CCOCCCNC(=O)CN1C(=O)CCn2nc(-c3cccn3C)cc21
-6%,CCC(C)NC(=O)CSc1c2c(nc3cc(Cl)ccc13)CCCC2 (stereo not drawn)
-14%,Cc1ccn2c(Nc3ccc4c(c3)OCCO4)c(-c3ccccc3O)nc2c1
-17%,COc1ccc(NC(=O)c2oc3ccc4c(c3c2C)C(=O)CC(C)(C)O4)cc1OC
-7%,O=C(Nc1cc(-c2nc3ccccc3s2)ccc1Cl)c1cc2ccccc2o1
-29%,O=C(Nc1cccc(C(=O)N2CCCCC2)c1)c1nsc2ccccc12
-3%,COC(=O)c1ccc(NC(=O)c2nn(C)c3c2CS(=O)(=O)c2ccccc2-3)cc1
21%,COc1ccc(Cl)cc1NC(=O)Cn1cc(S(=O)(=O)Cc2cccc(Cl)c2)c2ccccc21
1%,COC(=O)Cn1c(=O)c2c(nc3n2CCN3c2ccc(F)cc2)n(C)c1=O
1%,CCc1nnc2c(Nc3cccc(C(C)=O)c3)nc3ccccc3n12
?,CCOc1ccc(NC(=O)c2nc(S(=O)(=O)Cc3ccccc3F)ncc2Cl)cc1
12%,Cc1ccc2onc(CC(=O)N3CCN(c4ccc(F)cc4)CC3)c2c1
26%,CCOC(=O)c1ccc(NC(=O)Cn2c(=O)cc(C)c3c(C)nn(-c4ccc(CC)cc4)c32)cc1
18%,CCc1ccc(NS(=O)(=O)c2c(-c3ccccc3)csc2C(=O)OC)cc1
-1%,CC(C)NC(=O)C1CCC(Cn2c(=O)c3sccc3n(CC(=O)NCc3ccccc3)c2=O)CC1 (stereo not drawn)
3%,Cc1ccc(CNC(=O)CSc2ncc(S(=O)(=O)c3ccc(Br)cc3)c(=O)[nH]2)cc1
0%,COc1ccc(Cl)cc1NS(=O)(=O)c1c(C)nc2scc(C)n2c1=O
2%,O=C(Cn1c(=O)c2cccn2c2ccc(F)cc21)Nc1cccc(F)c1
0%,CCOCCCn1c(SCC(=O)OCC)nc2c(sc3ccccc32)c1=O
-31%,Cc1ccc2nc(Cl)c3cc(C(=O)N4CCCCC4)sc3c2c1
28%,Cc1ccn2c(Nc3ccc4c(c3)OCO4)c(-c3ccc(C)o3)nc2c1

Exported with bars between the fields: entries from further up
Compound | miR-21 reporter
Cc1ccn2c(Nc3ccc4c(c3)OCCO4)c(-c3ccccc3O)nc2c1 | -14%
COc1ccc(NC(=O)c2oc3ccc4c(c3c2C)C(=O)CC(C)(C)O4)cc1OC | -17%
O=C(Nc1cc(-c2nc3ccccc3s2)ccc1Cl)c1cc2ccccc2o1 | -7%
O=C(Nc1cccc(C(=O)N2CCCCC2)c1)c1nsc2ccccc12 | -29%
COC(=O)c1ccc(NC(=O)c2nn(C)c3c2CS(=O)(=O)c2ccccc2-3)cc1 | -3%
COc1ccc(Cl)cc1NC(=O)Cn1cc(S(=O)(=O)Cc2cccc(Cl)c2)c2ccccc21 | 21%

(more compounds)
miR-21 reporter,canonical_smiles
1%,Cc1ccc(NC(=O)c2cnc(N3CCCCC3)c3ccccc23)cc1Cl
6%,Cc1ccc(C(=O)NCC(c2ccc(Cl)cc2)N2CCCCC2)cc1 (stereo not drawn)
12%,CCn1c(=O)c2cc(C(=O)Nc3cc(OC)c(OC)c(OC)c3)sc2c2ccccc21
0%,COc1ccc(C)c2sc(N(Cc3cccnc3)C(=O)CCc3ccccc3)nc12
6%,CCOC(=O)c1ccc(NC(=O)COc2cccc3c(=O)n(C)ccc23)cc1
?,CCOC(=O)c1ccc(NC(=O)CC2C(=O)N(c3ccc(F)cc3)C(=O)N2Cc2ccc3c(c2)OCO3)cc1 (stereo not drawn)
3%,COc1ccc(C(=O)NCc2ccc3c(c2)CCN3C(=O)c2ccccc2)cc1
0%,CCOc1ccccc1CNC(=O)C1CCN(c2nnc(-n3c(C)ccc3C)s2)CC1
-4%,CCC(C)Cn1c(COc2ccc(OC)cc2)nc2ccccc21 (stereo not drawn)
-6%,COc1cc(OC)c(NC(=O)c2noc3c2CSc2ccccc2-3)cc1Cl
-18%,CCN(C(=O)CCS(=O)(=O)c1cc2c(cc1C)NC(=O)CO2)c1cccc(C)c1
0%,O=C(Nc1ccc(Cl)c(-c2nc3ccccc3o2)c1)c1ccc(-c2cccc([N+](=O)[O-])c2)o1
25%,CCC(C(=O)NCc1ccc2c(c1)CCN2C(=O)c1ccc(F)cc1)c1ccccc1 (stereo not drawn)
6%,COc1cccc2sc(NC(=O)c3ccc(S(=O)(=O)N4CCC(C)CC4)cc3)nc12
-10%,Cc1ccc(NC(=O)c2cnc(SCC(=O)N3CCCc4ccccc43)n(C)c2=O)cc1C
-3%,CCCCOC(=O)c1c(C)oc2c1cc(NS(=O)(=O)c1cc(OC)ccc1OC)c1ccccc12
-8%,COc1ccc(CCNC(=O)CCc2c(C)nc3cc(-c4cccc(F)c4)nn3c2C)cc1OC
-3%,Cc1ccc(CN2CCCn3nc(C(=O)NCCN(C)C)cc3C2=O)cc1
-2%,O=C(CN1C(=O)CCc2cc(S(=O)(=O)N3CCOCC3)ccc21)NCc1ccc(Cl)cc1
-5%,CCOC(=O)c1ccc(NC(=O)Cn2cc(C(=O)c3ccc(CC)cc3)c(=O)c3ccc(C)nc32)cc1
2%,O=S(=O)(c1ccccc1)n1nc(-c2ccccc2)nc1NCc1ccc(Cl)cc1
13%,Cc1ccc(C)c(CN2C(=O)c3ccccc3S(=O)(=O)c3ccc(C(=O)N4CCN(Cc5ccccc5)CC4)cc32)c1
19%,Cc1ccc2nc(-c3ccncc3)c(Nc3ccccc3C)n2c1
-2%,Cc1nn(C)c2c1c(C(F)(F)F)cc(=O)n2C(C)C(=O)NCc1ccccc1 (stereo not drawn)
-1%,Cc1ccc(S(=O)(=O)CCC(=O)Nc2ccc(Br)cc2C)cc1

4 compounds drawn at random from those above, as already listed:
miR-21 reporter,canonical_smiles
-10%,Cc1ccc(NC(=O)c2cnc(SCC(=O)N3CCCc4ccccc43)n(C)c2=O)cc1C
-3%,CCCCOC(=O)c1c(C)oc2c1cc(NS(=O)(=O)c1cc(OC)ccc1OC)c1ccccc12
6%,COc1cccc2sc(NC(=O)c3ccc(S(=O)(=O)N4CCC(C)CC4)cc3)nc12
13%,Cc1ccc(C)c(CN2C(=O)c3ccccc3S(=O)(=O)c3ccc(C(=O)N4CCN(Cc5ccccc5)CC4)cc32)c1

Next compounds
miR-21 reporter,canonical_smiles
-6%,CCOc1ccc(-n2c(SCc3ccccc3)nc3c([nH]c4ccccc43)c2=O)cc1
-1%,CCCC1=Nc2cc(C(=O)N3CCC(C)CC3)ccc2Sc2ccc(C)cc21
-1%,Cn1c(=O)c2c(nc(SCC(=O)Nc3ccc(F)cc3F)n2Cc2ccccc2)n(C)c1=O
0%,CCNc1nc2c(c(=O)n(C)c(=O)n2C)n1Cc1ccc(F)cc1
-14%,O=C(NCc1ccccc1Cl)c1ccc2nc(Cc3ccccc3)oc2c1
0%,O=C(CCSCc1cnn(-c2ccccc2)c1-n1cccc1)NCc1ccccc1Cl
-1%,CCn1nc(C)c2c(-c3ccccc3)cc(=O)n(C(C)C(=O)NCc3ccc(C)cc3)c21 (stereo not drawn)
-12%,CCOC(=O)c1sc(N2C(=O)c3oc4cc(C)c(C)cc4c(=O)c3C2c2cccc(O)c2)nc1C (stereo not drawn)
-1%,COc1ccc(OC)c(NC(=O)Cc2c(C)n(C(=O)c3ccc(Cl)cc3)c3ccc(OC)cc23)c1
15%,CC1Cc2cc(S(=O)(=O)NCc3ccccc3Cl)ccc2N1C(=O)C1CCC1 (stereo not drawn)
-2%,Cc1ccccc1CNC(=O)CCC(=O)N1CCSc2ccccc21
-22%,CC1CCn2c(nc3cc(C(=O)NCc4ccc(F)cc4)ccc32)C1 (stereo not drawn)
13%,Fc1ccccc1Nc1c2c(nc3ccccc13)CCC2
0%,CCCCN(C)C(=O)C1CCCN(c2ncnc3onc(-c4ccc(F)cc4)c23)C1 (stereo not drawn)
-1%,CCOC(=O)c1ccc(NC(=O)CSc2cc(-c3ccccc3)nc(C)n2)cc1
7%,COC(=O)c1scc(-c2ccc(C)cc2)c1S(=O)(=O)N1CCN(c2ccccc2)CC1
9%,COc1ccc(NC(=O)Cn2c(=O)n(-c3ccc(C)cc3)c(=O)c3c2c2cc(C)ccc2n3C)cc1
-13%,COCCCn1c(=N)c(S(=O)(=O)c2ccccc2)cc2c(=O)n3cc(C)ccc3nc21
-2%,Cc1ccc(CN2CCC(CNc3ncnc4onc(-c5ccc(Cl)cc5)c34)CC2)cc1
-3%,COc1ccccc1NC(=O)C1=C(C)Nc2nc(SCc3ccccc3)nn2C1c1ccncc1 (stereo not drawn)
3%,CCOc1cc(C2c3c(-c4ccccc4O)n[nH]c3C(=O)N2Cc2cccnc2)ccc1O (stereo not drawn)
3%,Cc1cccc(-n2ccnc2SCC(=O)Nc2cccc3ccccc23)c1
-1%,COc1cccc(N2CCN(Cc3nnc(-c4ccc5c(c4)OCO5)o3)CC2)c1
12%,CCOC(=O)C1CCCN(Cc2cn3c(-c4ccc(Br)cc4)nnc3s2)C1 (stereo not drawn)
-2%,COc1ccc(NC(=O)CN2CCN(C3CCCCC3)C(=O)C2=O)cc1
-8%,Cc1ccc2c(=O)cc(C(=O)Nc3nc4ccc(Cl)cc4s3)oc2c1
-5%,Cc1cc(C)c2c(=O)cc(C(=O)Nc3sc4c(c3C(=O)NCc3ccccc3)CCCC4)oc2c1
20%,O=C(c1ccccc1)N1CCc2cc(CNS(=O)(=O)c3ccccc3Cl)ccc21
1%,CCc1ccc(NC(=O)CN2CCCN(Cc3cccc(Cl)c3)S2(=O)=O)cc1
-11%,CCOc1ccc(NCc2cccn2-c2nnc(N3CCC(C(=O)NCCOC)CC3)s2)cc1
-4%,O=S1(=O)c2ccccc2N(Cc2ccc(Cl)cc2)c2ccccc21
5%,Cc1nn(-c2ccc(F)cc2)c(-n2cccc2)c1C(=O)N1CCCCC1C (stereo not drawn)
-27%,COc1cccc(N2CCN(C(=O)c3cccc(NC(=O)c4nsc5ccccc45)c3)CC2)c1
-23%,CCN1CCN(c2csc3ccc(Br)cc3c2=O)CC1

Sorted by value in miR-21 reporter (lowest first): 3 from the list above
compound | miR-21 reporter
Cc1ccc2c(=O)cc(C(=O)Nc3nc4ccc(Cl)cc4s3)oc2c1 | -8%
O=S1(=O)c2ccccc2N(Cc2ccc(Cl)cc2)c2ccccc21 | -4%
O=C(c1ccccc1)N1CCc2cc(CNS(=O)(=O)c3ccccc3Cl)ccc21 | 20%

Bioassay records as filed in PubChem.
